Rce1 inh = yeast Ras-converting enzyme inhibition; Q03530; calls only; AID 2563; 0.27% of 290,000 active; yeast membranes, quenched prenylated peptide cleavage fluorescence;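 active means fall in fluorescence gain of 50% or more versus controls, with final raw signal at or below 3038400; inconclusive means same 50% fall but final raw signal above 3038400; inactive means fall in fluorescence gain under 50%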;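 further: plate controls were neutral control wells for no effect and wells lacking membranes for full effect; tested at 10 µM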
HIV Env fusion = inhibitors of HIV Env-mediated cell fusion; HeLa-JRFL Env/CEM21 cell fusion, luciferase; inhibition, % at 12.3 µM; 1.1% of 360,000 active; AID 651610;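 active means mean replicate inhibition score of at least 50 and every replicate individually at or above 50; inconclusive means only one of the two criteria met; inactive means mean below 50 and not all replicates reaching 50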;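 further: 0% = plate neutral controls and 100% = maraviroc near 300 nM; one replicate is shown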
CSC inhib = blocks cancer stem cells; AID 2717; 1.1% of 300,000 active; inhibition, % at 7.5 µM; cancer stem cell-like cells viability, luminescence;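 active means mean at 75% or more and at least half the replicates too; inconclusive means mean and replicates disagree; tested in HMLE shEcad cells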;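 further: 0% = median of negative and 100% = median of positive control wells; the first replicate is given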
MT1-MMP act inh = inhibitors of human MT1-MMP activation; HT1080 RFP-PRO-GFP cells, GFP/RFP ratio fluorescence, overnight; percent of plate control window, DMSO zero; GFP/RFP ratio change, % at 20 µM; 0.061% of 360,000 active; AID 651647;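 active means GFP/RFP ratio change of at least 30% with cell ATP level not reduced by more than half and red fluorescence within 50% of control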; further: strong numbers were not always called active
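Assay system: HT1080 RFP-PRO-GFP cells | Dosing: 20 µM single dose, 1% DMSO | Incubation: Cells overnight before dosing, compound overnight, 37 °C, 5% CO2 | Evaluation: GFP/RFP fluorescence ratio | Control set: DMSO-only wells and HT1080 RFP-L50D-GFP cell wells as references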
Yeast UUG start = alters start codon recognition fidelity in yeast; S. cerevisiae UUG-firefly luciferase reporter, luminescence/redox ratio; activity score, % at 18.7 µM; 0.13% of 350,000 active; AID 602363;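 active means replicate mean at a twofold rise or more, about +100% in these data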;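 further: firefly luciferase made from a UUG start codon reports start codon fidelity; reporter light over untreated wells divided by growth signal over untreated wells; some hits fall short of that in this replicate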
eIF4H FP inh = inhibitors of RNA binding by human eIF4H; Q15056; eIF4H fluorescence polarization binding assay; inhibition, % at 35 µM; 0.94% of 290,000 active; AID 2012;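 active means 50% or more with normal probe brightness, or confirmed in later tests; inconclusive means above 50% with abnormal brightness, or retests that disagree; inactive means below 50% or failed in later tests; about a fifth of its hits are not listed in these tables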;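 further: calls also rest on retests at 20 µM and on dose response follow-up; 0% = protein and probe with vehicle and 100% = probe without protein; strong numbers were not always called active; many hits fall short of the cut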
PABP FP inh = PABP-poly(A) binding inhibition; P11940; PABP-poly(A) RNA binding, fluorescence polarization; inhibition, % at 35 µM; 1% of 290,000 active; AID 2014;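 active means 50% or more with normal probe brightness, or confirmed in later tests; inconclusive means above 50% with abnormal brightness, or retests that disagree; inactive means below 50% or failed in later tests; about a fifth of its hits are not listed in these tables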;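 further: calls also rest on retests at 20 µM and on dose response follow-up; controls were probe without protein and protein plus probe with vehicle; some compounds called inactive have numbers as strong as hits; many hits fall short of the cut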
Target sequence (P11940 whole entry, looked up): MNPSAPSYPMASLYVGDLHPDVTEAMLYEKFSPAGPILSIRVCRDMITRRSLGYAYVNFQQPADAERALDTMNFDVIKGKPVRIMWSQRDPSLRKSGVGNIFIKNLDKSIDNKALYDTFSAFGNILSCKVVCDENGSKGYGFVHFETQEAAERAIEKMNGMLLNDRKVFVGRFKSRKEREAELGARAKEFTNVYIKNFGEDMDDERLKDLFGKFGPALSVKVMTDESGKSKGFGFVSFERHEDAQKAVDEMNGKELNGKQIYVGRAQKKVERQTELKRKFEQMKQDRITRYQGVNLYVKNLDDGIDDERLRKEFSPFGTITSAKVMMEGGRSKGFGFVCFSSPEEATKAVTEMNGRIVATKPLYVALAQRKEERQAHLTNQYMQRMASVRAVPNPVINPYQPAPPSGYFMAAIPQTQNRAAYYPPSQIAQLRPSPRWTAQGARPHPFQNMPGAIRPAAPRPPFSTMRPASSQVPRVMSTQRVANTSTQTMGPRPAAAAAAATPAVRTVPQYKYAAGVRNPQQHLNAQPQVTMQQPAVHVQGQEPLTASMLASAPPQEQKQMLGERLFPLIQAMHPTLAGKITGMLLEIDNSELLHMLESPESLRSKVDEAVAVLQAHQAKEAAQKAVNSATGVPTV
MT1-MMP act inh RFP = also measured in MT1-MMP act inh; calls as there; RFP signal change, %; measured here: RFP expression control read;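 0 = vehicle wells; hits needed this value within 50% of zero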
An asterisk follows results filed as active; & = joins results of further samples. An excerpt; rates above refer to the full screens.

CCCn1c(C(C)Nc2nc(-c3ccc(OC)cc3)cs2)nc2ccccc21 (stereo unspecified) was read as Rce1 inh inactive, MT1-MMP act inh -5, Yeast UUG start -5, eIF4H FP inh -12, PABP FP inh -3 and MT1-MMP act inh RFP 1.
Screening CN(C)CCCNC(=S)Nc1ccc(Br)cc1 returned Rce1 inh inactive, HIV Env fusion -19, CSC inhib 9, MT1-MMP act inh 4, Yeast UUG start -1, eIF4H FP inh -9, PABP FP inh 0 and MT1-MMP act inh RFP 3.
O=[N+]([O-])c1ccc(-n2cccc2/C=N/Nc2nc(N3CCCCC3)nc(N3CCCCC3)n2)cc1 was read as Rce1 inh inactive, CSC inhib -10, eIF4H FP inh -2 and PABP FP inh -12.
Screening CNCC/C=C1/c2ccccc2CSc2ccccc21 returned CSC inhib 16, MT1-MMP act inh -15, Yeast UUG start -17, eIF4H FP inh -12, PABP FP inh -12 and MT1-MMP act inh RFP -6.
C#CCOCCOCCOCCNc1nc(N2CCOCC2)nc(N2CCN(C(=O)[C@H]([C@@H](C)CC)n3cc(CCCCN)nn3)CC2)n1 was read as Rce1 inh inactive, HIV Env fusion 19, CSC inhib -8, MT1-MMP act inh 0, Yeast UUG start -19, eIF4H FP inh 7, PABP FP inh 14 and MT1-MMP act inh RFP 1.
Screening C=CC[C@@H](Cc1ccc(F)cc1)C(=O)OC[C@H]1CCCN1C(=O)[C@@H](CC=C)CC(=O)N(CCO)Cc1ccccc1 returned HIV Env fusion -137, MT1-MMP act inh -9, Yeast UUG start -6 and MT1-MMP act inh RFP -11.
For COc1cccc(CN(C)CC(=O)Nc2cccc3ccccc23)c1 the results were Rce1 inh inactive, HIV Env fusion -100, CSC inhib 15, MT1-MMP act inh 0, Yeast UUG start -11, eIF4H FP inh 6, PABP FP inh 4 and MT1-MMP act inh RFP -2.
For CCCN1CC(O)=C(C#N)C1=O the results were Rce1 inh inactive, HIV Env fusion 7, CSC inhib -11, MT1-MMP act inh 0, eIF4H FP inh 6, PABP FP inh -3 and MT1-MMP act inh RFP 4.
Screening Cc1ccc(Cl)cc1N1CCN(S(=O)(=O)c2c(C(=O)N3CCOCC3)c(C)n(C)c2C)CC1 returned Rce1 inh inactive, HIV Env fusion -3, CSC inhib 4, MT1-MMP act inh -10, Yeast UUG start 13, eIF4H FP inh -14, PABP FP inh 2 and MT1-MMP act inh RFP -5.
For Cc1nonc1OCCNc1ccc([N+](=O)[O-])cc1[N+](=O)[O-] the results were HIV Env fusion -6, CSC inhib -16, MT1-MMP act inh 13, eIF4H FP inh -5, PABP FP inh -11 and MT1-MMP act inh RFP 7.

In the list so far, these have a halogen:
Screening CN(C)CCCNC(=S)Nc1ccc(Br)cc1 returned Rce1 inh inactive, HIV Env fusion -19, CSC inhib 9, MT1-MMP act inh 4, Yeast UUG start -1, eIF4H FP inh -9, PABP FP inh 0 and MT1-MMP act inh RFP 3.
Screening C=CC[C@@H](Cc1ccc(F)cc1)C(=O)OC[C@H]1CCCN1C(=O)[C@@H](CC=C)CC(=O)N(CCO)Cc1ccccc1 returned HIV Env fusion -137, MT1-MMP act inh -9, Yeast UUG start -6 and MT1-MMP act inh RFP -11.
Screening Cc1ccc(Cl)cc1N1CCN(S(=O)(=O)c2c(C(=O)N3CCOCC3)c(C)n(C)c2C)CC1 returned Rce1 inh inactive, HIV Env fusion -3, CSC inhib 4, MT1-MMP act inh -10, Yeast UUG start 13, eIF4H FP inh -14, PABP FP inh 2 and MT1-MMP act inh RFP -5.

Next section
For COc1ccc(Cl)cc1NC(=O)CN(C)C(=O)c1cn(-c2ccccc2)nc1-c1cccs1 the results were HIV Env fusion 17, MT1-MMP act inh 7, Yeast UUG start -19 and MT1-MMP act inh RFP -4.
CN(C)S(=O)(=O)c1cccc(NC(=O)COC(=O)CCC(=O)c2cccs2)c1 was read as Rce1 inh inactive, HIV Env fusion 9, CSC inhib 10, MT1-MMP act inh 0, Yeast UUG start -10, eIF4H FP inh 6, PABP FP inh inconclusive and MT1-MMP act inh RFP 0.
`Cc1ccc(S(=O)(=O)N(CC(=O)N/N=C/c2ccccc2C(=O)O)c2cc(Cl)cc(Cl)c2)cc1` gave Rce1 inh inactive, HIV Env fusion -7, CSC inhib 28, MT1-MMP act inh -3, eIF4H FP inh -1, PABP FP inh 4 and MT1-MMP act inh RFP -1.
For Cc1cc(N2CCCCC2)nc(SCC(=O)c2ccccc2)n1 the results were Rce1 inh inactive, HIV Env fusion -30, CSC inhib -7, MT1-MMP act inh 3, Yeast UUG start -16, eIF4H FP inh 1, PABP FP inh 9 and MT1-MMP act inh RFP 1.
Cc1cc(C)c2nc(N3CCC(C(=O)NCc4cccnc4)CC3)sc2c1 was read as Rce1 inh inactive, HIV Env fusion 3, CSC inhib -4, MT1-MMP act inh 3, eIF4H FP inh -2, PABP FP inh -2 and MT1-MMP act inh RFP -5.
`CCOC(=O)C(CCSC)Nc1nc(Cl)nc(Nc2ccc(Cl)cc2)n1` (stereo unspecified) gave Rce1 inh inactive, HIV Env fusion -3, MT1-MMP act inh -2, Yeast UUG start -3 and MT1-MMP act inh RFP -1.
O=C(Nc1cc([N+](=O)[O-])ccc1C(=O)NCCN1CCOCC1)c1ccccc1 was read as HIV Env fusion 9, CSC inhib -4, MT1-MMP act inh 0, Yeast UUG start -7, eIF4H FP inh -4, PABP FP inh 2 and MT1-MMP act inh RFP 0.
Screening CCc1ccc(NC(=O)Nc2cc(C(=O)NCC3CCCO3)ccc2N2CC3CC(C2)c2cccc(=O)n2C3)cc1 (stereo unspecified) returned Rce1 inh inactive, HIV Env fusion -1, CSC inhib -10, MT1-MMP act inh 0, Yeast UUG start 16 and MT1-MMP act inh RFP -3.
`Cc1noc(C)c1NC(=O)N(C)C[C@H]1Oc2ccc(NC(=O)NC3CCCCC3)cc2C(=O)N([C@H](C)CO)C[C@@H]1C` gave HIV Env fusion 21, MT1-MMP act inh 0, Yeast UUG start 1&-3 and MT1-MMP act inh RFP 3.
Screening COc1ccc(NC2CCCN(C(=O)C3(C)CCCCC3)C2)cc1OC (stereo unspecified) returned Rce1 inh inactive, HIV Env fusion 19, CSC inhib -7, MT1-MMP act inh -5, Yeast UUG start -15, eIF4H FP inh -4, PABP FP inh -8 and MT1-MMP act inh RFP -1.

Looked up one by one from above (2):
CN(C)S(=O)(=O)c1cccc(NC(=O)COC(=O)CCC(=O)c2cccs2)c1 was read as Rce1 inh inactive, HIV Env fusion 9, CSC inhib 10, MT1-MMP act inh 0, Yeast UUG start -10, eIF4H FP inh 6, PABP FP inh inconclusive and MT1-MMP act inh RFP 0.
For Cc1cc(N2CCCCC2)nc(SCC(=O)c2ccccc2)n1 the results were Rce1 inh inactive, HIV Env fusion -30, CSC inhib -7, MT1-MMP act inh 3, Yeast UUG start -16, eIF4H FP inh 1, PABP FP inh 9 and MT1-MMP act inh RFP 1.

The list goes on:
O=C1C(=O)N(CCN2CCOCC2)C(c2ccccn2)/C1=C(/O)c1ccc(Cl)cc1 (stereo unspecified) was read as Rce1 inh inactive, HIV Env fusion -12, CSC inhib -1, MT1-MMP act inh -18, Yeast UUG start -9, eIF4H FP inh 26, PABP FP inh 0 and MT1-MMP act inh RFP -1.
For CCC(C)(C)NC(=O)CN(C(=O)CCC(=O)Nc1nccs1)c1cccc(C)c1C the results were Rce1 inh inactive, HIV Env fusion 10, CSC inhib -7, MT1-MMP act inh -3, Yeast UUG start -1, eIF4H FP inh 4, PABP FP inh 6 and MT1-MMP act inh RFP -2.
Screening COc1ccc2c(Cl)c(C(=O)NCC3CCCO3)sc2c1Cl (stereo unspecified) returned Rce1 inh inactive, CSC inhib -8, eIF4H FP inh 1 and PABP FP inh -11.
For O=S(=O)(Nc1ccc(Cl)cn1)c1ccc2c(c1)OCCO2 the results were Rce1 inh inactive, HIV Env fusion -11, CSC inhib -1, MT1-MMP act inh 3, Yeast UUG start -11 and MT1-MMP act inh RFP 1.
Screening COC(=O)c1ccc(N2NC(=O)/C(=C/c3cc(OC)c(OC)c(OC)c3)C2=O)cc1 returned Rce1 inh inactive, HIV Env fusion 14, CSC inhib -4, MT1-MMP act inh -1, Yeast UUG start 1, eIF4H FP inh -2, PABP FP inh 10 and MT1-MMP act inh RFP 0.
CCOC(=O)C1C(=O)CC(C)(O)C(C(=O)OCC)C1c1ccccc1OC (stereo unspecified) was read as Rce1 inh inactive, HIV Env fusion 13, MT1-MMP act inh 19, Yeast UUG start 6, eIF4H FP inh -1, PABP FP inh -3 and MT1-MMP act inh RFP 0.
O=[N+]([O-])c1cc(C(F)(F)F)ccc1N1CCN(S(=O)(=O)c2ccc3ccccc3c2)CC1 was read as Rce1 inh inactive, CSC inhib 56, MT1-MMP act inh 7, Yeast UUG start -45, eIF4H FP inh -16, PABP FP inh -14 and MT1-MMP act inh RFP -29.
Screening Cc1ccc(C)c2sc(NC(=O)c3nc4ccccc4s3)nc12 returned Rce1 inh inactive, HIV Env fusion -19, CSC inhib 0, MT1-MMP act inh -1, Yeast UUG start -8, eIF4H FP inh 3, PABP FP inh 2 and MT1-MMP act inh RFP 5.
Cc1c(Cl)ccc2c(C(=O)O)cc(-c3ccccc3)nc12 was read as Rce1 inh inactive, HIV Env fusion -1, CSC inhib 20, MT1-MMP act inh -2, Yeast UUG start -2, eIF4H FP inh 1, PABP FP inh 12 and MT1-MMP act inh RFP 2.
Screening O=C(CN1CCOCC1)NNC(=O)c1ccc([N+](=O)[O-])cc1 returned Rce1 inh inactive, HIV Env fusion 0, CSC inhib -8, MT1-MMP act inh 2, Yeast UUG start -8 and MT1-MMP act inh RFP 3.
`Cc1c(-c2cccc(Cl)c2)nc2ccccc2c1C(=O)OCC(=O)Nc1ccc2c(c1)OCO2` gave Rce1 inh inactive, HIV Env fusion 30, CSC inhib 155*, MT1-MMP act inh 3, Yeast UUG start 9, eIF4H FP inh 4, PABP FP inh 2 and MT1-MMP act inh RFP -10.
`Cc1ccc(C)c(NC(=O)C2CC3c4ccccc4C2c2ccccc23)c1` (stereo unspecified) gave Rce1 inh inactive, CSC inhib -7, MT1-MMP act inh -4, Yeast UUG start -5, eIF4H FP inh -2, PABP FP inh 5 and MT1-MMP act inh RFP -4.
`Clc1ccc2scc(CN3CCCCC3)c2c1` gave Rce1 inh inactive, HIV Env fusion 7, CSC inhib 18, MT1-MMP act inh 0, Yeast UUG start -8, eIF4H FP inh -3, PABP FP inh 5 and MT1-MMP act inh RFP 3.
O=C(Nc1ccc(Oc2ccccc2)cc1)c1ccc(Cn2c(=O)[nH]c3ccsc3c2=O)cc1 was read as Rce1 inh inactive, HIV Env fusion -134, MT1-MMP act inh 7, Yeast UUG start 0, eIF4H FP inh 17, PABP FP inh 8 and MT1-MMP act inh RFP 0.
`COc1cc2c(=O)n(CCC(=O)NCC3CCCO3)c(=O)n(CC(=O)Nc3ccccc3C)c2cc1OC` (stereo unspecified) gave Rce1 inh inactive, HIV Env fusion -2, MT1-MMP act inh -1, Yeast UUG start -14, eIF4H FP inh -8, PABP FP inh 10 and MT1-MMP act inh RFP 3.
Screening CCSc1nc(N2CCOCC2)c2c(c1C#N)CCCC2 returned Rce1 inh inactive, CSC inhib 27, MT1-MMP act inh -11, Yeast UUG start -21, eIF4H FP inh -12, PABP FP inh -10 and MT1-MMP act inh RFP -8.
CCN1CCN(C(=S)NC(C)c2ccccc2)CC1 (stereo unspecified) was read as Rce1 inh inactive, HIV Env fusion 1, CSC inhib 9, MT1-MMP act inh 1, eIF4H FP inh 7, PABP FP inh 12 and MT1-MMP act inh RFP 4.
COc1cccc(N(CC(=O)Nc2ccccc2C(=O)N2CCCC2)S(C)(=O)=O)c1 was read as Rce1 inh inactive, HIV Env fusion -3, CSC inhib -8, MT1-MMP act inh 1, Yeast UUG start -7, eIF4H FP inh -6, PABP FP inh 5 and MT1-MMP act inh RFP 2.

Bioassay records deposited in PubChem by several laboratories.
